High-throughput results from PubChem BioAssay.
KCNQ2 enhance: enhances the rat KCNQ2 potassium channel; O88943; CHO-K1 KCNQ2, FluxOR thallium flux fluorescence; hits give high values; B-score at 10 µM; 310,000 tested, 0.54% active; AID 2239;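 active = fluorescence ratio B-score at least 3 SD of library B-scores, with initial fluorescence B-score within 3 SD, cut at about 5.3 in these data; same plate scores as AID 2156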;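 also: B-score of peak minus minimum over baseline fluorescence ratio after K+ and Tl+ stimulus; positive B-score means potentiation of KCNQ2 with more thallium influx and brighter signal; only the inactives scoring about 0 or higher are listed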
Target sequence (O88943 whole entry, looked up): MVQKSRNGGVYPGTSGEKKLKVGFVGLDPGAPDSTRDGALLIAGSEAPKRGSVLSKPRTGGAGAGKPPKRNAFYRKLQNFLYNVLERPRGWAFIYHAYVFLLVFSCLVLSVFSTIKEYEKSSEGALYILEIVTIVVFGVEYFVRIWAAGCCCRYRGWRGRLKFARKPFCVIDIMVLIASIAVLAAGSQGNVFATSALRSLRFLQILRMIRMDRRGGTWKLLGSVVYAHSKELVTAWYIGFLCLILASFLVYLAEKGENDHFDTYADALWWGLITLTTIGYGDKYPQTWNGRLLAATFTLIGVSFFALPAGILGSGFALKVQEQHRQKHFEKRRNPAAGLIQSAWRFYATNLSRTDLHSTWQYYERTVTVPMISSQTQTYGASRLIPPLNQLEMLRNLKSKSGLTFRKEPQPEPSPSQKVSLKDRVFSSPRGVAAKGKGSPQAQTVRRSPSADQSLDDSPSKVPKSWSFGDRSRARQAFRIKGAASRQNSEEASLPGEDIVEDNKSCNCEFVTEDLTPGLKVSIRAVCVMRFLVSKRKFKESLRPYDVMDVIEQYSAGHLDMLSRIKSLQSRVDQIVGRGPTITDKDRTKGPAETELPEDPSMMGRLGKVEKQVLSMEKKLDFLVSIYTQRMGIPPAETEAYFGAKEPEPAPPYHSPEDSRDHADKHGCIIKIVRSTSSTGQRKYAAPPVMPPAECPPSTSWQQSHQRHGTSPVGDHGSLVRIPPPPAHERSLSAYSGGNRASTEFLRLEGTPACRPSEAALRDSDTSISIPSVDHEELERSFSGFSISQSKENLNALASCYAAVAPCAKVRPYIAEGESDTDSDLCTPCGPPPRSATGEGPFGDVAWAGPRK
KCNQ2 enhance baseline: recorded beside KCNQ2 enhance, whose call it bears; B-score; compound at 10 µM; measured here: initial fluorescence intensity artifact check;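 brightness before thallium and not channel activity; 0 = typical well and far values either way flag optical interference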
An asterisk follows results filed as active; · = not tested or not shown. Some of the compounds tested; the hit share may differ from the screen's.

Below each SMILES: KCNQ2 enhance baseline	KCNQ2 enhance
> O=C(Nc1ccncc1NC(=O)c1cccc([N+](=O)[O-])c1)c1cccc([N+](=O)[O-])c1
    0.1	0.42
> Cc1ccc(C(=O)NCCCN2CCOCC2)cc1N1CCCC1=O
    -0.08	0.03
> COc1ccc(NC(C)=O)cc1S(=O)(=O)NC1CCSc2ccccc21 (stereo unspecified)
    -0.47	1.3
> O=C(Nc1nnc(CSCc2ccc(Cl)cc2)s1)c1cccc([N+](=O)[O-])c1
    -0.14	0.16
> CCC(O)C1CCN(C(=O)c2cc(COc3ccc4ncccc4c3)on2)CC1 (stereo unspecified)
    -0.7	0.74
> O=C(N/N=C/c1ccncc1)c1cc(-c2ccc(Br)s2)[nH]n1
    1.2	0.53
> CCOC(=O)/C(C#N)=C/Nc1cc(C(C)(C)C)sc1C(C)=O
    0.1	0.05
> COC(=O)[C@H](Cc1ccccc1)NC(=O)N1CCC(C)CC1
    -2.3	0.98
> CSc1ccccc1OC1CCN(Cc2ccccc2)CC1
    1.6	1.4
> CC(C)(C)c1cc(C(=O)NNC(=O)Nc2cccc(Cl)c2)n(Cc2ccccc2)n1
    -1	0.13
> COC(=O)CSc1cc([N+](=O)[O-])ccc1NC(=O)OC
    1.1	0.97
> COc1ccccc1C1=NOC(Cn2c(NCC3CCCO3)nc3c2c(=O)n(C)c(=O)n3C)C1 (stereo unspecified)
    0.92	1.4
> COc1cc(C2(O)CCCCC2C)cc(OC)c1OC (stereo unspecified)
    0.04	0.45
> COCCn1c(SCC(=O)Nc2ccc3c(c2)CCC3)nc2ccccc2c1=O
    -0.01	0.51
> COc1cccc(NC(=O)C(Sc2nnnn2C)c2ccccc2)c1 (stereo unspecified)
    0.85	0.13

Next part, starting with the last 6 of the part before.
Below each SMILES: KCNQ2 enhance baseline	KCNQ2 enhance
> CC(C)(C)c1cc(C(=O)NNC(=O)Nc2cccc(Cl)c2)n(Cc2ccccc2)n1
    -1	0.13
> COC(=O)CSc1cc([N+](=O)[O-])ccc1NC(=O)OC
    1.1	0.97
> COc1ccccc1C1=NOC(Cn2c(NCC3CCCO3)nc3c2c(=O)n(C)c(=O)n3C)C1 (stereo unspecified)
    0.92	1.4
> COc1cc(C2(O)CCCCC2C)cc(OC)c1OC (stereo unspecified)
    0.04	0.45
> COCCn1c(SCC(=O)Nc2ccc3c(c2)CCC3)nc2ccccc2c1=O
    -0.01	0.51
> COc1cccc(NC(=O)C(Sc2nnnn2C)c2ccccc2)c1 (stereo unspecified)
    0.85	0.13
> CCCCOC(=O)n1c(SCC(=O)N(C)C)nc2ccccc21
    2.6	2.1
> CSc1sc(C(=O)NCC2CC2)c2c1S(=O)(=O)N(C)c1ccccc1-2
    -0.98	0.15
> CC(=O)c1ccc(NC(=O)CCS(=O)(=O)c2ccc3c(c2)n(C)c(=O)c(=O)n3C)cc1
    2.9	1.1
> Cn1ncc(Cl)c1C(=O)NC(=S)Nc1sc2c(c1C#N)CCCCC2
    -0.47	0.24
> CCn1cc(S(=O)(=O)c2ccc(OC)cc2)c(=O)c2cc(OC)ccc21
    0.29	0.94
> COc1ccc(CN(CC2CCC(C(=O)O)CC2)C(=S)Nc2cc(Cl)ccc2OC)cc1 (stereo unspecified)
    0.63	0.66
> Cc1ccc(OCC(O)CNCc2ccc(F)cc2)cc1 (stereo unspecified)
    0.53	0.29
> Cc1ccc(NC(=S)NC2CCSc3ccccc32)cc1 (stereo unspecified)
    -1.6	0.12
> N#C/C(=N\Nc1ccc(Cl)cc1)C(=N)N1CCCCCC1
    0.08	0.23
> CCOC(=O)c1sc2c(c1C)c(=O)c(C(=O)OCC)cn2CC
    -1.2	0.72
> CC1=C(C(=O)N2CCCCCC2)C2(CCC(C)CC2)OC1=O (stereo unspecified)
    0.43	1.2
> O=C(Nc1ccccc1F)c1cc(C(=O)Nc2ccccc2F)cc([N+](=O)[O-])c1
    -0.82	1.1
> COc1ccc(N2CCN(C(=S)Nc3ccc(OC)cc3OC)CC2)cc1
    1.2	0.97
> Cc1ccccc1N1C(=O)C2ON(c3ccccc3)C(c3ccncc3)C2C1=O (stereo unspecified)
    -3.3	1
> Nc1nnc(CCS(=O)(=O)c2cc(Cl)ccc2Cl)s1
    1.1	0.14
> CC1(C)CC(NC(=O)CCC2CCCC2)CC(C)(C)N1
    1.2	0.09
> O=C1O/C(=C/c2ccccc2)c2ccccc21
    0.91	0.62
> O=C(CC(n1cncn1)C(Cl)(Cl)Cl)c1ccc([N+](=O)[O-])cc1 (stereo unspecified)
    -1.2	0.26
> Cc1cc(SCC(=O)Nc2cccc(S(=O)(=O)NC3=NCCCCC3)c2)c(C)cc1Br
    -0.74	2.5
> COc1cccc(C(=O)N(c2ccccc2)C2C=CS(=O)(=O)C2)c1 (stereo unspecified)
    -0.79	2.2
> COC(=O)c1ccc2c(c1)C(=O)/C(=C/c1ccc(O)cc1)O2
    -0.33	0.08
> O=C(CN1CCN(Cc2ccccc2F)C1=O)NC1CCCC1
    -0.29	0.01
> CC(=O)c1ccc(NC(=O)/C(=C\c2ccco2)NC(=O)c2ccco2)cc1
    1.6	0.71
> COc1ccc(N(C(=O)c2cnccn2)C(C(=O)NC2CCCCC2)c2cc(OC)c(OC)c(OC)c2)cc1 (stereo unspecified)
    0.42	1.5
> CCSc1nc2sc3c(c2c2[n+]1CC(CBr)O2)CCCC3 (stereo unspecified)
    0.07	2.2
> Cc1cc(C)cc(N=C(NO)c2cccc([N+](=O)[O-])c2)c1
    2.1	3
> CC1N(C(=O)N(C)C)CCN1S(=O)(=O)c1ccccc1 (stereo unspecified)
    0.07	0.24
> CCN1CCN(C(=O)NC(c2ccc(C)c(F)c2)C(Cl)Cl)CC1 (stereo unspecified)
    0.98	0.54
> Cc1ccc(-c2cc(C(=O)N/N=C/C=C/c3ccccc3)n[nH]2)o1
    0.05	0.28
> CCOc1ccc(N(C)S(=O)(=O)c2ccc(C)c(C(=O)OCC(=O)c3c[nH]c4ccccc34)c2)cc1
    0.8	1.6
> OCC1(Cc2ccccc2)CCN(Cc2cnn(-c3ccccc3F)c2)CC1
    -0.8	0.9
> COc1cc(/C=N/n2c(-c3ccccc3)n[nH]c2=S)cc(OC)c1O
    -2.1	1.5
> CC1(C)CC(=O)C(C=NCCN2CCN(C3CC(=O)N(c4ccc(Cl)c(Cl)c4)C3=O)CC2)=C(O)C1 (stereo unspecified)
    2.3	1.3
> CCN(CC)CCCNc1nc2cc(OC)c(OC)cc2c2nc(-c3ccccc3)nn12
    -0.47	1.4
> NC(=O)COc1ccc(NC(=O)OCc2ccccc2)cc1
    -0.02	0.14
> CCN1C(=O)N[C@@H](c2ccccc2)[C@H](C(C)=O)[C@H]1C
    -0.04	1.3
> COc1ccc2nc(SCC(=O)Nc3cc(C)on3)[nH]c2c1
    -1.4	0.03
> CCCCCN(C(=O)CCC(=O)OC(C)C(=O)c1ccccc1)c1c(N)n(CCCC)c(=O)[nH]c1=O (stereo unspecified)
    -1.1	1.3
> Cn1c(CSc2ncccn2)nnc1SCC(=O)N1CCCc2ccccc21
    -0.06	0.63
> N#Cc1ccc(C23CC4(C2)[C@H](CN(Cc2ccc(-c5ccccc5)cc2)[C@@H]4c2ccccc2)C3c2ccc(C(F)(F)F)cc2)cc1 (stereo partly specified)
    -0.65	0.38
> C=C(C)c1cccc(C(C)(C)NC(=O)Nc2ccc(OC)nc2)c1
    1.6	0.88
> CCCC[n+]1ccn(-c2nc3ccccc3nc2[N-]S(=O)(=O)c2cccs2)c1
    0	0.31
> O=C(Cc1cc(=O)[nH][nH]1)N/N=C/c1cccc(Cl)c1Cl
    ·	0.75
> Clc1ccc(-n2c(SCc3nc4ccccc4[nH]3)nnc2-c2ccncc2)cc1
    1.1	0.26
> Cc1ccc(S(=O)(=O)/N=C(\N)c2ccc(Cl)cc2)cc1
    0.07	0.01
> COC(=O)c1sccc1NC(=S)N1CCN(c2ccccc2F)CC1
    0.4	0.89
> COC(=O)c1cc(-c2cccc(OC)c2)n[nH]1
    0.15	0.39
> NS(=O)(=O)c1ccc(NC(=S)NCc2ccccc2Cl)cc1
    -0.68	0.84
> CCOC(=O)CNS(=O)(=O)c1ccc(C)cc1
    -1.7	1.2
> O=C(c1ccco1)N1CCN=C1SCc1cccc(F)c1
    0.8	0.8
> COC(=O)C1=C(C)N(CCc2cc(OC)c(OC)c(OC)c2)C(=O)N[C@H]1c1ccccc1
    0.05	0.48
> Cc1ccc(-c2csc(NC3OC(=O)c4ccccc43)n2)cc1 (stereo unspecified)
    0.03	1.7
> O=C(NC1CC1)C1=C[C@@H](c2c[nH]c3ccccc23)C[C@@H](OCCCCO)O1
    0.56	0.52
> Cc1cccc2cc3c(NC(=O)c4ccccn4)nn(C)c3nc12
    0.35	0.55
> COC(=O)c1sc(NC(=S)NC(=O)c2ccccc2C)nc1C
    -0.38*	12*
> CN(C)S(=O)(=O)c1cccc(NC(=O)c2n[nH]c(=O)c3ccccc23)c1
    -1	1.5
> O=C(NNC(=O)c1csc(-c2cccnc2)n1)c1ccccc1
    -1.3	1.8
> Cc1cc(C(=O)N=Nc2c(O)n(C(C)C)c3ccccc23)n[nH]1
    -0.77	0.24
> CCc1cc(=O)[nH]c(SCC(=O)N2CCC(Cc3ccccc3)CC2)n1
    0.02	0.88
> CCOC(=O)c1cnc2ccc(OCC)cc2c1N1CCN(C)CC1
    -0.63	1.8

Structural class, those above containing a tert-butyl group
Below each SMILES: KCNQ2 enhance baseline	KCNQ2 enhance
> CCOC(=O)/C(C#N)=C/Nc1cc(C(C)(C)C)sc1C(C)=O
    0.1	0.05
> CC(C)(C)c1cc(C(=O)NNC(=O)Nc2cccc(Cl)c2)n(Cc2ccccc2)n1
    -1	0.13

Going on with the list:
Below each SMILES: KCNQ2 enhance baseline	KCNQ2 enhance
> CC1CCN(C(=S)c2cccc(O)c2)CC1
    -0.96	0.06
> COc1ccc2nc(-c3ccc(F)cc3)sc2c1
    -1.3	1.2
> O=C(NCCc1ccccc1)c1cc(-c2ccc3c(c2)OCO3)on1
    -0.99	0.69
> COc1cc(/C=C2/C(=N)N3N=C(CC(=O)N4CCOCC4)SC3=NC2=O)ccc1OCc1ccc(F)cc1
    0.12	1.1
> O=C(Nc1ccc(N2CCOCC2)cc1)c1ccc([N+](=O)[O-])o1
    -0.33	0.26
> CCCC(=O)Nc1nnc(-c2cccc(OCC)c2)s1
    -0.02	1.6
> COC(=O)c1ccccc1C(=O)N1CCCC(C(=O)c2cc(F)ccc2F)C1 (stereo unspecified)
    1.2	0.05
> COc1ccc(NC(=O)CCNS(=O)(=O)c2cccc(C(C)=O)c2)cc1S(N)(=O)=O
    0.32	1.3
> Fc1cccc(Oc2nc3ccccc3n3cccc23)c1
    1.3	1.2
> Cc1c(Cl)cccc1NC(=S)N1CCN(c2ncccn2)CC1
    1.4	0.03
> O=C(CCc1ccccc1)Nc1ncc2c(n1)CCCC2=O
    -2.5	1.2
> O=C(Nc1ccc(N2CCN(C(=O)c3cccs3)CC2)cc1)c1ccccc1F
    0.8	1.5
> CCO/C=C1\C(=O)N(c2ccc(OCC)cc2)C(=O)c2ccccc21
    -0.87	2.2
> O=C(CSC1=NNC(c2ccccn2)S1)Nc1cccc(Cl)c1 (stereo unspecified)
    -1.4	0.12
> O=C(NCC1CCCO1)c1cccc(S(=O)(=O)NCc2ccccc2)c1 (stereo unspecified)
    -0.53	1.1
> Cc1[nH]n(-c2ccccc2)c(=O)c1C=Nc1ccc(S(=O)(=O)N(C)C)cc1
    0.71	0.51
> Cc1ccc(C(=O)N2CCN(c3cccc(C)c3C)CC2)o1
    -0.38	0.03
> O=C(NCc1ccccc1F)c1cc(=O)[nH]c2ccccc12
    0.59	0.19
> Cc1nn(Cc2ccc(C(=O)N3CCCC3)o2)c(C)c1[N+](=O)[O-]
    -1.1	1.1
> O=C(Nc1ccc(Oc2ccc3ccccc3c2)cc1)c1ccco1
    1.2*	11*
> Cc1ccc(NC(=O)c2cc3ccccc3o2)cc1
    -1	0.31
> CCN1C(=O)c2cccc3c(NC(=O)C4CCCCC4)ccc1c23
    -0.12	1.6
> CS(=O)(=O)N1CCC(C(=O)N2CCN(c3ccc(F)cc3)CC2)CC1
    -1.4	0.02
> CCCCOc1ccc(NC(=O)c2cnc(C)cn2)cc1
    0.31	0.05
> CC1CN(S(=O)(=O)c2cccc3nsnc23)CC(C)O1 (stereo unspecified)
    -3.5	0.9
> COC1(OC)N=C(N)C2(C#N)C(c3ccc4c(c3)OCO4)C12C#N (stereo unspecified)
    -0.82	1.2
> Cc1ccc2nc(SCc3nnc(-c4cccs4)o3)[nH]c2c1
    0.02	0.2
> CN1CCN(C(=O)/C(=C/c2ccccc2Cl)NC(=O)c2ccccc2)CC1
    0.1	0.01
> O=Cc1ccc(-c2ccc(C(=O)O)cc2)o1
    -0.57	4.4
> Nc1ccc(C(=O)OCC(=O)Nc2ccc3c(c2)OCO3)cc1[N+](=O)[O-]
    -0.5	0.1
> CCOc1ccc(NC(=O)/C=C/c2ccc(OC)cc2)c([N+](=O)[O-])c1
    0.53	0.96
> CCc1nc2sc3ccccc3c(=O)c2c(=O)n1Cc1ccco1
    -0.16	1.1
